Rango release inh – qHTS Assay for Inhibitors of RanGTP induced Rango (Ran-regulated importin-beta cargo) - Importin beta complex dissociation. Biochemical FRET Rango-importin beta, RanGTP-induced dissociation. Potency, µM (top dose mostly 46.1 µM), for inactives: at the highest dose activity change, negative = inhibition. 0.071% of 340,000 active; active means falling FRET ratio curve, often poorly fitted, with flat reads before Ran was added; inconclusive means other falling curves, or compound fluorescence or quenching; inactive means flat or rising ratio curve;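 also: potency is read from the fitted curve at half-maximal effect; % of control where 0% means no effect; nearly all actives have a fitted effect of over 45% in size; -100% = wells without RanGTP and RCC1; the record marks most hits as doubtful in a second field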
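Quantitative HTS using a FRET biosensor: 0.1 uM Rango, 0.25 uM importin beta, 0.6 uM Ran, 2 mM GTP, 0.2 uM RCC1 final, PBS with DTT, Tween-20 and BSA. Post-read taken 45 min after Ran addition.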
miR-21 FLuc – qHTS Assay for Modulators of miRNAs and/orActivators of miR-21; HeLa miR-21 FLuc reporter, luciferase, 48 h; Potency, µM (titrated, usually from 38.3 µM), for the others: at the highest dose reporter change, positive = more light; 340,000 tested, under 10 active; active = well fitted rising curve with a large enough effect; inconclusive = small, poorly fitted or top-dose-only effect; inactive = no such curve, though single readings can be large or run the other way;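 also: % of control where 0% means no effect; miR-21 action dims this reporter so a rising signal means less miR-21 action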
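Compounds were titrated across several concentrations (up to approximately 40 uM) and incubated 48 hours with HeLa miR-21-FLuc reporter cells (miR-21 target sequence downstream of FLuc, endogenous miR-21). Readout was firefly luciferase luminescence after lytic detection reagent.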
Rango-impB inh – qHTS Assay for Inhibitors of Rango (Ran-regulated importin-beta cargo) - Importin beta complex formation | Rango CFP/YFP FRET sensor + importin beta, 45 min | Potency, µM (top dose mostly 92.2 µM), inactives show at the top dose inhibition of complex formation | Importin subunit beta-1 (Homo sapiens), Q14974 | 0.031% of 340,000 active; active = rising FRET ratio curve, often small or poorly fitted; inconclusive = mostly compound fluorescence or quenching in the first reads; inactive = flat curves in all reads;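 also: potency is read from the fitted curve at half-maximal effect; 0% = DMSO wells and 100% = buffer wells lacking importin beta; nearly all actives have a fitted effect of over 15% in size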
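FRET biosensor (snurportin 1 IBB flanked by EYFP and cerulean), 50 nM, with compound 5 min, then 0.125 microM importin beta in PBS, 1 mM DTT, 0.02% Tween-20, 0.1% BSA. CFP/YFP ratio read after 45 min at room temperature; pre-read flags interference.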
GLA inh pH 4.5 – qHTS Assay for Inhibitors of Human alpha-Galactosidase at pH 4.5. purified enzyme, 4-MU-alpha-Gal fluorescence, pH 4.5. activity change, negative = inhibition, % at 105 µM. 230,000 tested, under 10 active; inconclusive = small, poorly fitted or top-dose-only inhibition, or a rising curve; inactive = flat fitted curve, though single readings scatter; no compound was filed as active;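 also: 0% = full activity with enzyme and -100% = basal without enzyme; dose as in the result columns while the protocol names 77 µM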
Target sequence (P06280 whole entry, looked up): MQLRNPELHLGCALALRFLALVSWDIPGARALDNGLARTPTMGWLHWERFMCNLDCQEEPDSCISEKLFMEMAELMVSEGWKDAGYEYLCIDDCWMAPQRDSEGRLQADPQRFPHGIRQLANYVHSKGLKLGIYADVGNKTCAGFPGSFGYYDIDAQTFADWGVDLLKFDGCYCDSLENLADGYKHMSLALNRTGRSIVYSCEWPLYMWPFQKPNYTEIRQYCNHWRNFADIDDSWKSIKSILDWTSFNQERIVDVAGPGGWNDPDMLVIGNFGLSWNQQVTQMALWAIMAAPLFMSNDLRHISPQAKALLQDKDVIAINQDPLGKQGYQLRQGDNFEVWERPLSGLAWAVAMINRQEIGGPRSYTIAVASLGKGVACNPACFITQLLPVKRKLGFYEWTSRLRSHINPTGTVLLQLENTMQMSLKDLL
Active calls of the source: *; ? = inconclusive; / = no result given; & = joins results of further samples; [ ] = another dose, or the depositor's remark.

SMILES	Rango release inh	miR-21 FLuc	Rango-impB inh	GLA inh pH 4.5
CC(=O)N1CC(=O)N=C1SCC(=O)Nc1nc(-c2ccccc2)c(-c2ccccc2)s1	0%	22%	6.2%	-4
COc1ccccc1N1CCN(C(=O)CCNS(=O)(=O)c2ccc3c(c2)CCC(=O)N3)CC1	15%	-7%	0.5%	-3
Nc1nc(Cl)c(N)c(NCC2(CO)CC(CCc3ccccc3)C2)n1 (centres undefined)	?	/	?	/
CCOC(=O)CCCNC(=O)COC(=O)CCC(=O)c1ccc(F)cc1	-12%	0%	3.5%	8
COc1ccc(/C=N/Nc2nncc3ccccc23)cc1	5%	1%	0.7%	-7
CCc1ccc2[nH]cc(C(=O)N3CCCCCC3)c(=O)c2c1	-4%	0%	1.2%	-5
Cc1ccc(S(=O)(=O)NCc2ccc(C(=O)NC3CCCCC3)cc2)cc1	-6%	0%	-0.7%	/
Cc1cccc(CN2CCN(CC(=O)NCCCN3CCCC3=O)C2=O)c1	-10%	-1%	0.1%	-11
CCOC(=O)C(NC(C)=O)(NS(=O)(=O)c1ccccc1)C(F)(F)F (centres undefined)	3%	-2%	-2.6%	-7
COc1ccc(C)cc1NC(=S)NC12CN3CN(CN(C3)C1)C2	/	-1%	/	-2
CCOC(=O)c1nc2sc3c(c2c(=O)[nH]1)CCCC3	?	-6%&-2%	2.9%	?
Cc1nccn1-c1cc(C(C)(C)C)nc2c(-c3ccccc3)cnn12	16%	-17%	8.8%	-10
Cc1ccc(C(=O)N(CN2CCCC2=O)c2ccc(F)cc2)cc1	-1%	-12%	-3.6%	-17
COc1ccc(OC)c(NC(=O)C2CCN(c3cc(-c4ccccc4)nc4ncnn34)CC2)c1	4%	-1%	2.3%	2
CC(=O)c1ccccc1OC(=O)COc1ccc(Cl)cc1C	26%	-2%	2.3%	-15
Nn1c(SCC(=O)N2CCOCC2)nnc1C1CC1	-8%	-1%	0.3%	4
Cc1ccc(S(=O)(=O)N2CCC(C)CC2)cc1C(=O)NCc1ccccn1	-4%	0%	0.5%	/
CC(Oc1cccc(Cl)c1)C(=O)Nc1nc(-c2ccccn2)cs1 (centres undefined)	-17%	/	-2.2%	/
CN(C)/C=C/C(=O)c1cnc(-c2ccccc2Cl)s1	-5%	-71%	-0.7%	-6
C=CCOc1ccccc1/C=N/O	-6%	-6%	-2.7%	-3
Cc1nc(C)c(/C(O)=C/c2nc3ccc([N+](=O)[O-])cc3oc2=O)o1	/	-13%	/	-4[21.1 µM]
CC1CN(S(=O)(=O)c2ccc(C(=O)O)cc2)CC(C)O1 (centres undefined)	-12%	-2%	0.3%	1
CCOC(=O)N1CCN(C(=O)Cn2nc(C)n3nc(-c4ccccc4)cc3c2=O)CC1	15%	-1%	2.3%	/
COc1cccc(CN2CCNC(=O)C2CC(=O)N(C)CC2CCOCC2)c1OC (centres undefined)	5%	-3%	-1.0%	/
COc1ccccc1C(=O)NC(=O)COC(=O)c1ccc([N+](=O)[O-])cc1Cl	-5%	/	-0.5%	/
Cc1cc(NC(=O)CCC(=O)NNC(=O)c2ccc(C(C)(C)C)cc2)no1	-1%	-6%	0.3%	-9
COc1ccc(C)cc1S(=O)(=O)N(CC(N)=O)Cc1ccccc1	-2%	0%	0.1%	0
CSc1nnc(CNC(=O)c2ccccc2)n1-c1cccc(C)c1	-15%	-7%	-0.6%	-11
CCC(=O)Oc1ccc2c(C)cc(=O)oc2c1C(=O)c1ccccc1	13%	-5%	-3.3%	-7
Cc1ccc(-n2ncc3c(NNC(=O)c4ccco4)ncnc32)cc1C	-7%	-32%	0.1%	/
COc1ccccc1/C=C/C=N/NC(=O)CCn1nnc2ccccc21	-5%	-10%	6.9%	3
COCCN1CN(S(=O)(=O)c2ccc(Cl)cc2)c2nc3ccccc3nc21	4%	-2%	?	-6
Cc1cc(C)c(S(=O)(=O)N2CCN(C(=O)c3cccs3)CC2)c(C)c1	8%	6%	-1.6%	-7
CC1=NNC(=O)C1CC(=O)N/N=C/C(C)=C/c1ccccc1 (centres undefined)	-17%	-12%	?	4
O=C(NC(=S)NCc1cccnc1)c1ccccc1[N+](=O)[O-]	-2%	9%	0.6%	6
Cc1cc2c(c(C)c1CCO[C@@H]1O[C@H](CO)[C@@H](O)[C@H](O)[C@H]1O)C(=O)[C@@H](C)[C@@H]2O	-14%	/	-1.5%	/
Cc1cccc(C)c1OCCN1C(=O)NC(C)(c2ccccc2)C1=O (centres undefined)	8%	0%	?	-8
Cc1cnccc1CN(C)C(=O)C1CCC(=O)N(Cc2ccccc2F)C1 (centres undefined)	?	1%	?	/
Cc1ccccc1NC(=S)NC(C)CCc1ccccc1 (centres undefined)	7%	0%	11%	-11
Cc1c(CC(=O)O)c(=O)oc2cc(OCc3ccc(F)cc3F)ccc12	8%	-16%	0.1%	/
COC(=O)c1ccc(CNC(=O)CSc2nnc(COc3ccccc3)n2C)o1	0%	-4%	0.0%	-1
COCCN(C(=O)COC(=O)CNC(=O)c1ccc(C)cc1)c1c(N)n(Cc2ccccc2)c(=O)[nH]c1=O	15%	/	-0.8%	/
Cc1nc(SCc2nc3ccccc3[nH]2)c2oc3cc(Br)ccc3c2n1	-18%	/	-3.0%	/
CCn1cc(C(=O)N2CCN(c3ccc(OC)cc3)CC2)c(=O)c2cc(S(=O)(=O)N3CCCCC3)ccc21	2%	0%	4.2%	-4
Cc1ccccc1NC(=S)Nc1cccc2cnccc12	11%	2%	-3.6%	-7
CCN1C(=O)[C@H]2[C@H]3CN=C(SCc4ccc(Cl)cc4)N3[C@@](C)(C(=O)OC)[C@H]2C1=O	1%	/	-1.8%	/
CCN(C(=O)COC(=O)/C=C/c1ccco1)c1c(N)n(Cc2ccccc2)c(=O)[nH]c1=O	1%	/	-0.5%	/
O=C(CC1Sc2ccccc2NC1=O)OCc1cc(=O)oc2cc(O)ccc12 (centres undefined)	?	-22%	?	7
COc1ccc(NC(=O)NS(=O)(=O)c2ccc(C)cc2)cn1	?	-5%	?	/
CC(C)CN1CCC(=O)N([C@H](CO)c2ccccc2)CC1	0%	0%	?	/
O=C(NC(=S)Nc1cccc(NC(=S)NC(=O)c2ccco2)n1)c1ccco1	-14%	-6%	?	2
CC(=O)Oc1ccc2ccccc2c1C(NC(=O)Cc1ccccc1)c1ccccc1 (centres undefined)	5%	-1%	3.6%	0
Cc1ccc(C(=O)N[C@H](C(=O)Nc2ccc(N3CCOCC3)cc2)C(C)C)cc1	11%	/	5.1%	/
CCCCNC(=O)CN1CCN(Cc2ccc3cc(OC)ccc3c2)CC1	2%	5%	0.2%	/
Cc1cc(C)c2nc(C)cc(Nc3ccc(C(=O)N(C)C)cc3)c2c1	-16%	25%	-2.2%	-1
O=C(NCCCNC(=O)c1ccco1)c1ccc(Cl)cc1	2%	-16%	-1.2%	/
O=C(Nc1ccccc1)/C(=C/c1ccc(O)cc1)NC(=O)c1ccco1	-22%	-5%	-0.8%	/
CN1C(=O)C(C)(C)c2cc(S(=O)(=O)NCCc3ccc(Cl)cc3)ccc21	7%	-12%	1.4%	/
COc1ccc(C(=O)COC(=O)c2sc(C)nc2C)cc1F	-11%	/	-2.2%	/
C1=C(CCNc2ncnc3c2[nH]c2ccccc23)CCCC1	-5%	13%	0.2%	-16
Next results follow.
SMILES	Rango release inh	miR-21 FLuc	Rango-impB inh	GLA inh pH 4.5
Cc1ccc(-n2ncc3c(NCc4ccccn4)ncnc32)c(C)c1	1%	-20%	0.6%	0
N#CCC(=O)Nc1ccc(C(=O)OCC(=O)NC(=O)Cc2ccccc2)cc1	-4%	/	?	/
CCOc1cc2nc(-c3ccc(OC)c(OC)c3)nc(NCCCN3CCOCC3)c2cc1OC	6%	-4%	4.3%	-5
COc1ccccc1/C=C/C=N/NC(=O)c1ccc(=O)n(C)c1	9%	-6%	-6.0%	1
CCc1nnc(NC(=O)c2c(O)c3cccc4c3n(c2=O)CC4)s1	/	-1%	/	-5
COc1ccc(CNC(=O)C2CCN(c3nnc(N4CCCC4=O)s3)CC2)cc1	-3%	-6%	-4.0%	/
Cc1cc(NC(=O)Nc2ccccc2[N+](=O)[O-])n(C)n1	11%	-6%	3.9%	/
Cc1cc(S(=O)(=O)NCCCN2CCOCC2)c(Cl)cc1Cl	0%	-5%	-3.8%	/
CN(Cc1cnccn1)Cc1nc(Cc2ccccc2F)no1	4%	-2%	-2.2%	3
CCn1cc([N+](=O)[O-])c(C(=O)Nc2ccn(Cc3ccccc3F)n2)n1	1%	-2%	0.8%	2
COc1ccc(OC)c(C(=O)NC(CC(N)=O)c2ccc(N3CCC(N4CCCCC4)CC3)c([N+](=O)[O-])c2)c1 (centres undefined)	1%	-1%	1.5%	/
CC1CCN(CCCn2c(SCC(=O)Nc3ccccc3Cl)nc3ccccc3c2=O)CC1	8%	1%	-3.5%	-4
Cn1nccc1C(=O)N1CCC(Cc2ccccc2)CC1	25%	4%	-0.1%	/
Cc1cc(=O)[nH]c(-n2nc(C)c(Oc3ccccc3O)c2C)n1	-5%	6%	-0.1%	6
NC(=O)C1CCCN(C(=O)c2cccc(NC(=O)c3cccs3)c2)C1 (centres undefined)	7%	/	-3.4%	/
CC(c1ccccc1)N1CC(C(=O)O)CC1=O (centres undefined)	-5%	0%	6.3%	-23
CC(=O)NCC(=O)N[C@@H](CC(=O)OCc1ccccc1)C(=O)OCc1ccccc1	3%	4%	-0.4%	8
COc1ccc(C2CC(c3ccc(Cl)cc3)=NN2C(=O)c2cccc([N+](=O)[O-])c2)cc1 (centres undefined)	-2%	-24%	1.7%	4
CC(C)C(=O)Nc1ccc2c(c1)Cc1cc(NC(=O)C(C)C)ccc1-2	0%	-13%	0.4%	/
O=c1nc(-c2ccccc2)c2cc(SC(F)F)ccc2[nH]1	-1%	-2%	-3.0%	/

Profiles, looked up by structure:
`N#CCC(=O)Nc1ccc(C(=O)OCC(=O)NC(=O)Cc2ccccc2)cc1` in the list: Rango release inh = -4%; miR-21 FLuc = /; Rango-impB inh = ?; GLA inh pH 4.5 = /
`CC(C)C(=O)Nc1ccc2c(c1)Cc1cc(NC(=O)C(C)C)ccc1-2` in the list: Rango release inh = 0%; miR-21 FLuc = -13%; Rango-impB inh = 0.4%; GLA inh pH 4.5 = /

The list continues.
SMILES	Rango release inh	miR-21 FLuc	Rango-impB inh	GLA inh pH 4.5
CCOC(=O)C1(Cc2ccc(OC)cc2)CCN(C(=O)[C@@H]2CCCN2C(C)=O)CC1	-7%	-9%	?	-6
CCCC1C(C#N)=C(N)Oc2n[nH]c(C(C)(C)C)c21 (centres undefined)	6%	-7%	3.0%	3
Cc1ccc(N(CC(=O)NC2CCCC2)C(=O)CCC(=O)Nc2ccccn2)cc1	-8%	7%	3.4%	/
O=C1OC[C@H]2CCCN2C(=O)[C@@H](CC(=O)N(CCO)Cc2ccccc2)C/C=C\CC[C@@H]1Cc1ccc(F)cc1	3%	/	0.8%	/
COc1ccc(N(CC(=O)NCCSc2ccccn2)S(=O)(=O)c2ccccc2)cc1OC	14%	-4%	3.5%	/
COc1ccc(OCc2ccc(C(=O)NN)cc2)cc1	-14%	-18%	1.2%	2
COc1ccc(OC)c2[nH]c(=O)c(CCNC(C)=O)cc12	-1%	-5%	-4.1%	6
Clc1ccc(CN2CCN(c3ncnc4scc(-c5cccs5)c34)CC2)cc1	-16%	8%	4.3%	2
CN(c1cccc(NC(=O)CN(c2cccc(F)c2)S(C)(=O)=O)c1)S(C)(=O)=O	?	-4%	-3.2%	2
Cc1ccc(S(=O)(=O)N2CCCC(C(=O)NCCc3ccccc3)C2)cc1 (centres undefined)	3%	-7%	2.0%	/

Arranged by molar mass (lowest first): 3 of the compounds above.
SMILES	Rango release inh	miR-21 FLuc	Rango-impB inh	GLA inh pH 4.5
COc1ccc(OCc2ccc(C(=O)NN)cc2)cc1	-14%	-18%	1.2%	2
CCOC(=O)C1(Cc2ccc(OC)cc2)CCN(C(=O)[C@@H]2CCCN2C(C)=O)CC1	-7%	-9%	?	-6
O=C1OC[C@H]2CCCN2C(=O)[C@@H](CC(=O)N(CCO)Cc2ccccc2)C/C=C\CC[C@@H]1Cc1ccc(F)cc1	3%	/	0.8%	/

Screens deposited in PubChem by National Center for Advancing Translational Sciences (NCATS).

The list is partial; the hit share may differ from the screen's.
